Screening data: PubChem, Center for Chemical Genomics, University of Michigan
TAR Tat displ: HIV-1 TAR-Tat binding disruption | HIV-1 TAR RNA, Tat peptide displacement FRET; hits give high values | z-score (no concentration beside the values) | hit rate 0.6% among 100,000 | AID 1259389;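 also: score is relative to mean and SD of negative controls; some compounds called inactive have numbers as strong as hits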
CDC25B-CDK2 inh: human CDC25B-CDK2/CyclinA binding inhibition. P30305+P24941. hit rate 0.72% among 94,000. z-score (concentration not given with the values). HTRF CDC25B-CDK2/CyclinA binding, anti-His/anti-Flag; hits give high values;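 also: score is relative to mean and SD of negative controls; strong numbers were not always called active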
Starred values were filed as active, the others as inactive; x = no result given.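 The calls were made as follows: active = z-score from 3 up in half or more of its runs; inactive = the rest.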

The line under a structure holds: TAR Tat displ	CDC25B-CDK2 inh
- O=C(NCc1ccc2c(c1)OCO2)c1oc(=O)c2ccccc2c1-c1ccccc1
→ 0.2	-1.42
- COc1ccc(OC)c(NS(=O)(=O)c2ccc3[nH]c4c(c3c2)CCCCC4)c1
→ 2.51	x
- COc1cc(C)ccc1OCCSc1nc(-c2ccccc2F)nc2cc(=O)[nH]n12
→ 1.22	x
- COc1ccc(-n2nc(C)cc2Nc2ccccc2C(=O)O)cc1
→ x	-1.67
- Cc1ccc2nc(CN3CCN(S(=O)(=O)c4ccc(C(C)C)cc4)CC3)oc2c1
→ 1.25	x
- Cc1sc(-n2cccc2)c(CO)c1C
→ 0.84	x
- Cc1nnc(N2CCOCC2)c2c1nnn2Cc1ccccc1Cl
→ 2.12	-2.52
- COc1ccc(-c2coc3cc(OC(C)=O)cc(OC(C)=O)c3c2=O)cc1
→ 2.48	x
- CCC(CO)Nc1nc(C)nc2sc3c(c12)CCC3 (configuration not stated)
→ x	-0.5
- CCCCOC(=O)Nc1nc(CC(=O)OCC)cs1
→ 0.42	-3.28
- COc1ccc(C(=O)CSc2nc(C)nc3c2CCC3)cc1
→ 1.08	-1.73
- Cc1cc(C)c2c(-n3c(C)ccc3C)nn(CC(=O)NCc3ccc(C)o3)c2n1
→ 1.54	x
- CCOC(=O)c1noc2nc(C)nc(Nc3ccc(N4CCC(C)CC4)cc3)c12
→ -0.21	x
- CCC(=O)Nc1nc2c(s1)CC(C)CC2 (configuration not stated)
→ 1.17	-0.14
- O=C1OC(Nc2ccc(C(F)(F)F)cc2Cl)c2ccccc21 (configuration not stated)
→ x	-1.43
- O=C(NCCCN(Cc1ccco1)C1CCCC1)c1cc(-c2ccccn2)nc2ccccc12
→ 5.33	x
- COc1ccccc1CNc1c(-c2ccc(F)cc2)nc2ncccn12
→ -0.31	x
- CN1CCSc2ccc(C(=O)NCCCN3CCCC3)cc21
→ 1.45	-2.84
- O=C(COCc1cc(-c2ccco2)on1)Nc1cccc(O)c1
→ 1.48	x
- O=C(CN1C(=O)CCSc2ccccc21)NCCCN1CCN(C2CCCCC2)CC1
→ 1.51	-1.64
- CSC1=C(C#N)C(=O)NC(C)(C)S1
→ x	3.7
- CCn1c[n+](CC(O)COc2cccc(OC)c2)c2cc(C)c(C)cc21 (configuration not stated)
→ 1.39	2.45
- O=C(O)COCC(=O)Nc1cc(Cl)cc(Cl)c1
→ x	-0.22
- Cc1ccc(CNC(=O)Cn2ncn3c(cc4cc(F)ccc43)c2=O)o1
→ -1.54	0.6
- Cc1ccc(N2CC(C(=O)O)CC2=O)cc1 (configuration not stated)
→ -1.14	0.15
- CCn1c(C)c(C2=CCN(S(=O)(=O)c3ccc(OC)c(OC)c3)CC2)c2ccccc21
→ 0.42	-2.16
- CC(C)Cc1ccc(S(=O)(=O)N2CCC(c3ccncc3)CC2)cc1
→ 1.79	x
- OCCN1C[C@@H](O)[C@@H](O)C(O)C1CO (some centres not stated)
→ 0.68	x
- CCC1=NN(C(=O)c2cccc(C)c2)C(O)(C(F)(F)F)C1 (configuration not stated)
→ x	-0.82
- COc1ccc(C(=O)Oc2ccc3c(c2)oc(=O)c2ccccc23)cc1
→ 0.66	-0.65
- COc1ccc(-c2cc(-c3ccccc3O)[nH]n2)cc1
→ 0.76	0.5
- CCCN(CCS(=O)(=O)N1CCNCC1)S(=O)(=O)c1ccc(OC)cc1
→ 2.04	x
- COc1ccc(CNc2oc(/C=C/c3ccc(OC)c(OC)c3)nc2C#N)cc1
→ 1.22	0.83
- O=C(CN1C(=O)CCc2cc(Br)ccc21)Nc1ccc(F)c(F)c1
→ 0.72	x
- CCc1nnc2c3ccccc3nc(N3CCN(C(=O)c4ccco4)CC3)n12
→ 2.26	x
- COC(=O)c1ccc(C(=O)OC)c(NC(=O)CCN2C(=O)c3ccccc3C2=O)c1
→ x	-4.49
- Cc1cc(S(=O)(=O)NCCc2csc(-c3ccc(Cl)cc3)n2)ccc1F
→ 0.22	x
- CC(C)CNC(=O)C(=O)NCC(c1cccs1)S(=O)(=O)c1ccc(Cl)cc1 (configuration not stated)
→ 0.69	x
- O=C1NC(=O)/C(=C/c2ccc(OC(=O)c3ccccc3)cc2)N1
→ x	-0.33
- COCCNc1ncnc2c(-c3ccc(F)cc3)nsc12
→ 1.44	0.65
- Cc1ccc(-n2ncc3c(N(C)C)ncnc32)cc1C
→ 0.14	x
- CC(C)(C)OC(=O)N1CCCN(S(=O)(=O)c2ccc(Cl)cc2)CC1
→ x	-1.88
- ONC(=Nc1cc(Cl)cc(Cl)c1)c1ccccc1
→ x	-0.46
- Cc1ccc(C2C(CN3CCOCC3)=C(c3ccccc3)Oc3ccccc32)cc1 (configuration not stated)
→ x	-0.96
- Cc1[nH]nc(-n2cnnc2)c1NS(=O)(=O)c1ccc(Cl)cc1
→ 0.59	-0.06
- Cc1nc(N(C)C)cc(N2CCN(C(=O)c3ccc(Br)cc3)CC2)n1
→ -1.11	-0.13
- CCS(=O)(=O)NCC(c1ccco1)N1CCN(c2ccccc2)CC1 (configuration not stated)
→ 1.88	x
- CSc1ccc(-c2ccc(SC)cc2)cc1
→ 0.76	-0.95
- CCn1cc(S(=O)(=O)c2ccc(F)cc2)c(=O)c2cc(Cl)ccc21
→ 2.56	-1.92
- O=C1CCCC2=C1C(c1ccc([N+](=O)[O-])o1)Nc1ccc(C(=O)c3ccccc3)cc1N2 (configuration not stated)
→ 0.04	-2.38
- COc1ccccc1C1C(C(=O)OC(C)C)=C(C)NC2=C1C(=O)CC(c1ccccc1)C2 (configuration not stated)
→ 0.08	-0.64
- CC1CCN(S(=O)(=O)c2ccc3c4c2CC(=O)N4CC(C)S3)CC1 (configuration not stated)
→ -1.31	x
- CCCC12CN3CC(C)(CN(C1)C3c1ccc(Br)cc1)C2=O (configuration not stated)
→ x	-0.82
- Cc1c(C(=O)N2CCN(C3c4ccccc4-c4ccccc43)CC2)cnn1-c1ccccc1
→ x	0.75
- O=C(NCc1ccccn1)C1CCC(CNS(=O)(=O)c2cccc3cccnc23)CC1 (configuration not stated)
→ x	0.18
- Clc1ccc(/C=C2\CCCC3=C2Nc2ncnn2C3c2ccc(Cl)cc2)cc1 (configuration not stated)
→ 1.68	-0.8
- O=c1c2ccccc2nnn1C1CCN(S(=O)(=O)c2ccccc2)CC1
→ 1.55	x
- O=C(NCc1ccco1)c1cnn2c3c(cnc12)CCCCC3
→ 1.09	x
- CCSc1ncc(Cl)c(C(=O)Nc2ccc(S(=O)(=O)N3CC(C)OC(C)C3)cc2)n1 (configuration not stated)
→ -0.22	-1.31
- CCOC(=O)c1c(C)c(C(=O)NCCC(C)C)c(C)n1C
→ x	-0.8

Next part
canonical_smiles | TAR Tat displ | CDC25B-CDK2 inh
CCc1nnc(SCC(=O)Nc2cc(C)ccc2C)c2cc3occc3n12 | 3.27 | x
Cc1cc(C)cc(NC(=O)N2CCN(c3cc(N4CCCC4)nc(C)n3)CC2)c1 | 0.12 | 0.34
CCN(CC)CCn1c(=O)c2c(ncn2CC(O)CO)n(C)c1=O (configuration not stated) | 0.31 | -2.78
CS(=O)(=O)Nc1cccc(C2=NN(C(=O)CCCC(=O)O)C(c3ccccc3)C2)c1 (configuration not stated) | 0.94 | -1.11
COc1ccc(OC)c2[nH]c(=O)c(CCNS(=O)(=O)c3ccc(Cl)cc3)cc12 | x | -1.83
O=C(Cn1ncc2c([nH]c3ccccc32)c1=O)Nc1ccccc1F | 2.06 | x
COC(=O)C[C@H]1C(C)(C)C(OC(C)=O)[C@]2(O)C=C3C(CC[C@]4(C)C3CC(=O)O[C@H]4c3ccoc3)C1(C)C2=O (some centres not stated) | 1.34 | x
CC1CCCCN1c1nnc(NC(=O)Nc2ccc(Br)cc2)s1 (configuration not stated) | 1.63 | -0.19
O=C(COCc1cc(-c2ccc(F)cc2)on1)N1CCN(C(=O)c2ccco2)CC1 | 2.01 | x
O=C(O)CN1C(=O)COc2ccc(C(=O)N3CCCC3)cc21 | 2.31 | x
CC1=C(c2cccc(Br)c2)S(=O)(=O)N=C1N1CCN(C2CCCCC2)CC1 | 1.04 | -0.28
Cc1ccc(/C(O)=C2/C(=O)C(=O)N(CCN(C)C)C23C(=O)N(C)c2ccccc23)cc1 (configuration not stated) | 2.12 | -1.45
Cc1ccc(N2C(=O)Nc3ccccc3S2(=O)=O)cc1Cl | 0.17 | x
COc1cccc(C2C(C#N)=C(N)Oc3n[nH]c(C(C)(C)C)c32)c1 (configuration not stated) | 0.92 | 0.2
O=C1c2cccc(O)c2C(=O)c2c(O)cccc21 | 3.09 | x
O=C(NCCCN1CCCC1=O)C(=O)NCc1n[nH]c(=O)c2ccccc12 | 0.53 | x
O=C(c1ccc(S(=O)(=O)N2CCOCC2)cc1)N1CCc2cc3ccccc3nc21 | -0.07 | -0.05
CCOC(=O)C(CC)Sc1nc(C)nc2c1c(=O)n(C)c(=O)n2C (configuration not stated) | x | -2.27
COc1ccc(-n2c(C)nnc2SCc2nc(-c3ccccc3OC)no2)cc1 | 2.43 | -2.16
Cc1ccc(-c2noc(CN(C)S(=O)(=O)c3ccc(Br)cc3)n2)cc1 | 0.47 | -1.1
CSC(N)=NCCCC(N)C(=O)O (configuration not stated) | 0.34 | x
CCOC(=O)c1noc2ncnc(Nc3ccc4c(c3)OCO4)c12 | -0.29 | x
Cc1ccc(OCC(=O)Nc2cccc(C(=O)Nc3ccccc3C(=O)O)c2)cc1C | x | -1.18
Fc1cccc(CSc2ncn[nH]2)c1 | 1.9 | -1.75
COC(=O)c1ccc(N2CSC3=C(C#N)C(c4ccc(C)cc4)CC(=O)N3C2)cc1 (configuration not stated) | 1.34 | 15.6*
COC(=O)c1ccc(-c2nc3cc(NC(C)=O)c(N)cc3o2)cc1 | x | -0.42
CCOc1ccc(-c2cccc(NS(=O)(=O)c3ccc(Br)cc3)c2)nn1 | 0.68 | x
COc1ccc2c(c1)c(=O)oc1cc(OCc3ccc(C(=O)O)o3)ccc12 | x | 1.65
Cc1nc2c(c(SCC(=O)Nc3sc4c(c3C#N)CCC4)n1)CCC2 | 0.04 | -2.21
CC1CCCC(NC(=O)C(=O)Nc2ccc3nc4n(c(=O)c3c2)CCCCC4)C1C (configuration not stated) | 0.32 | 0.8
CCC1CN(C(=O)N2CCC(C(=O)NCCC3=CCCCC3)CC2)c2ccccc2O1 (configuration not stated) | 1.42 | x
CCN(CC)C(=O)Cn1cc(SCC(=O)NC)c2ccccc21 | -1.54 | x
Cc1ccccc1-c1noc(-c2nnn(-c3ccc(Cl)cc3)c2N)n1 | 1.43 | x
CCN1CCN(c2nc3c(S(=O)(=O)c4ccc(C(C)C)cc4)nnn3c3ccsc23)CC1 | -0.59 | x
COc1ccc2c(c1)CC(NC(=O)N1CCCCC1)CO2 (configuration not stated) | 0.48 | x
Cc1ccc(N2C(=O)[C@@H]3CSC(c4ccc(Cl)cc4)N3C2=O)cc1 (some centres not stated) | 1.17 | -0.77
COc1ccc(Cl)cc1NC(=O)Cn1ncn2nc3c(c2c1=O)CCCC3 | 1.95 | x
COCCn1ccc2nc(C)c(C(=O)OC)cc2c1=O | -0.93 | -1.06
Fc1ccc(Nc2c(-c3c[nH]c4ccccc34)nc3ccccn23)cc1 | x | -2.57
N#C/C(=C\c1ccc[nH]1)C(=O)NCC1CCCO1 (configuration not stated) | x | -1.91

4 entries from above, with each value named:
> Cc1cc(C)c2c(-n3c(C)ccc3C)nn(CC(=O)NCc3ccc(C)o3)c2n1
  TAR Tat displ: 1.54; CDC25B-CDK2 inh: x
> CCOC(=O)c1noc2nc(C)nc(Nc3ccc(N4CCC(C)CC4)cc3)c12
  TAR Tat displ: -0.21; CDC25B-CDK2 inh: x
> CCC(=O)Nc1nc2c(s1)CC(C)CC2 (configuration not stated)
  TAR Tat displ: 1.17; CDC25B-CDK2 inh: -0.14
> O=C1OC(Nc2ccc(C(F)(F)F)cc2Cl)c2ccccc21 (configuration not stated)
  TAR Tat displ: x; CDC25B-CDK2 inh: -1.43

(next part)
canonical_smiles | TAR Tat displ | CDC25B-CDK2 inh
Nc1nc(SCC(=O)N2CCCCC2)nc2sc3c(c12)CCCC3 | -1.88 | 0.82
CN(CCCNC(=O)NC1COc2ccccc2C1)Cc1ccccc1 (configuration not stated) | 0.56 | x
Cc1nnc(Nc2ccc(F)cc2)[nH]c1=O | x | 0.76
COCCn1c(C)cc(C(=O)C(=O)Nc2nnc(-c3cccs3)s2)c1C | 2.85 | -2.33
Clc1nc(NCc2ccco2)nc(N2CCC(Cc3ccccc3)CC2)n1 | 7.12 | -0.96
Cn1cccc1-c1cc2n(n1)CCC(=O)N2CCCC(=O)NCCCN1CCCC1 | -0.8 | x
O=S(=O)(NC1CCCCC1N1CCN(c2ccccc2F)CC1)c1ccc(Cl)cc1 (configuration not stated) | 7.34 | -2.08
Cc1cc(CNC(=O)Nc2ccccc2Br)c(C)n1-c1ccccc1 | -3.53 | x
O=C(C1CCN(c2nc3cccnc3s2)CC1)N1CCc2ccccc2C1 | -0.23 | x
CNS(=O)(=O)c1cn(CC(=O)N2CCCC2)cc1S(=O)(=O)NC | -0.72 | x
COc1ccccc1OCCNS(=O)(=O)c1cc2c(cc1Cl)NC(=O)CO2 | -4.11 | x
CCOc1ccc2nc(NC(=O)c3ccc4oc(=O)n(C)c4c3)oc2c1 | 2.3 | x
Nc1cc(OC(=O)c2ccc(-c3ccccc3)cc2)nn1S(=O)(=O)c1ccc(F)cc1 | -1.96 | -0.89
O=C(O)c1ccc(NC(=O)c2cc(S(=O)(=O)N3CCOCC3)cs2)cc1 | x | -0.36
CO[C@]12C[C@@H](COC(=O)c3cncc(Br)c3)CN(C)[C@@H]1Cc1cn(C)c3cccc2c13 | 0.47 | x
Cc1cc(-n2ccnc(NCc3ccc4c(c3)OCO4)c2=O)ccc1Br | -4.85 | x

Three records drawn at random from the list so far:
canonical_smiles | TAR Tat displ | CDC25B-CDK2 inh
Cc1cc(-n2ccnc(NCc3ccc4c(c3)OCO4)c2=O)ccc1Br | -4.85 | x
CO[C@]12C[C@@H](COC(=O)c3cncc(Br)c3)CN(C)[C@@H]1Cc1cn(C)c3cccc2c13 | 0.47 | x
Nc1cc(OC(=O)c2ccc(-c3ccccc3)cc2)nn1S(=O)(=O)c1ccc(F)cc1 | -1.96 | -0.89

Not a hit list; overall some 0.9% were active at least once.
